Bioassay records (PubChem BioAssay)
HIV TAR-Tat: TAR RNA-Tat peptide displacers, HIV-1, primary screen, biochemical, FRET, FAM/TAMRA-labeled Tat; HIV-1 TAR RNA, Tat peptide displacement FRET; hits give high values; z-score (concentration not given with the values); 100,000 tested, 0.6% active; AID 1259389, 2018;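 also: score is relative to mean and SD of negative controls; some compounds called inactive have numbers as strong as hits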
CDC25B-CDK2 inh: primary biochemical HTRF screen for blockers of M-phase inducer phosphatase 2 binding to CDK2/cyclin A | HTRF CDC25B-CDK2/CyclinA binding, anti-His/anti-Flag; hits give high values | 94,000 tested, 0.72% active | P30305+P24941 | z-score (test concentration not listed) | AID 1259370, 2018;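 also: score is relative to mean and SD of negative controls; strong numbers were not always called active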
* hit, by the source's call; . = no result given.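 The calls were made as follows: active = z-score from 3 up in half or more of its runs; inactive = the rest.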

SMILES | HIV TAR-Tat | CDC25B-CDK2 inh
CC1=C(C(=O)OCCc2ccccc2)C(c2cccs2)C2=C(CC(c3cccs3)CC2=O)N1 (configuration not stated) | 0.88 | -1.5
NC(=O)CCOC1CCN(C(c2ccccc2)c2ccccc2)CC1 | . | -1.46
CCCCCCn1c(CN2CC(C)OC(C)C2)nc2c1c(=O)n(C)c(=O)n2C (configuration not stated) | 1.17 | -1.28
C#CC1(NS(=O)(=O)c2ccc(C(=O)OCC)cc2)CCCCC1 | . | -1.14
Cn1c(=O)c2c(nc(CN3CCc4ccccc4C3)n2CCCO)n(C)c1=O | . | -3.48
CC(C)(C)c1nnc2n1N=C(c1ccc(Br)cc1)CS2 | 0.9 | .
CC(C)CNc1ncnc2c1cnn2-c1ccccc1 | 0.81 | .
CCOC(=O)c1c(NC(=O)CN2CCOCC2)sc(C)c1C | -0.63 | 0.4

Further records follow:
SMILES | HIV TAR-Tat | CDC25B-CDK2 inh
Cc1cc2n(n1)C(c1cccc(O)c1)Nc1ccccc1-2 (configuration not stated) | -0.13 | -2.18
CC(C)OC(=O)c1cccc2c1C(=O)c1ccccc1-2 | . | -2.6
CCOC(=O)c1[nH]c(C)c(C(=O)N(CC)CC)c1C | -0.21 | -0.6
Cc1noc2ncnc(N3CCC(C(=O)NC4CCCc5ccccc54)CC3)c12 (configuration not stated) | 0.23 | .
O=C(CNc1ccc(F)cc1F)Nc1cc(C(F)(F)F)cc(C(F)(F)F)c1 | . | -1.94
CC(c1nnc(SCC(=O)Nc2ccc3c(c2)OCO3)n1C)N1C(=O)COc2ccccc21 (configuration not stated) | -1.91 | .
COc1cc(OC)c(N(C)C(=O)Cc2noc3ccccc23)cc1Cl | 1.9 | -1.06
Cc1ccc(-c2ccc(=O)n(C(C)C(=O)c3ccc(C)c(C)c3)n2)cc1 (configuration not stated) | 0.92 | 0.11

Compound profiles, from the list above.
Shown for CCCCCCn1c(CN2CC(C)OC(C)C2)nc2c1c(=O)n(C)c(=O)n2C (configuration not stated) : HIV TAR-Tat: 1.17; CDC25B-CDK2 inh: -1.28
Shown for Cc1cc2n(n1)C(c1cccc(O)c1)Nc1ccccc1-2 (configuration not stated) : HIV TAR-Tat: -0.13; CDC25B-CDK2 inh: -2.18

More entries:
SMILES | HIV TAR-Tat | CDC25B-CDK2 inh
CCOC(=O)CN1C(=O)c2c(c3n(c2-c2ccccc2)Cc2ccccc2-3)C1=O | -0.09 | -0.24
COc1ccc(-c2noc(-c3nnn(-c4ccc(OC)c(OC)c4)c3C)n2)cc1 | -0.54 | .
Cc1ccccc1C(=O)NC(Nn1cnnc1)(C(F)(F)F)C(F)(F)F | . | -0.28
O=C1CC(c2ccccc2)(c2ccccc2)c2ccccc21 | . | -0.37
CN(C)S(=O)(=O)c1ccc2c(c1)nnn2CCNC(=O)Nc1ccccc1 | 1.26 | .
COc1ccc(NC(=O)N2CCn3c(C)ccc3C2C(C)C)cc1 (configuration not stated) | 0 | .
Cc1c(S(=O)(=O)N2CCc3ccccc3C2)cc(C(=O)N2CCC(C)CC2)n1C | 1.64 | .
Cc1nccc(-c2cccc(NS(=O)(=O)c3ccccc3C(F)(F)F)c2)n1 | . | -1.16

New compounds follow
SMILES | HIV TAR-Tat | CDC25B-CDK2 inh
C=CCSc1nc2ccccc2c(=O)n1CC(=C)C | -0.64 | 0.28
O=C(NCc1cccnc1)c1sc2ncccc2c1-n1cccc1 | 0.49 | .
Cc1nc2c(c(C)c1CCC(=O)NCCCN1CCCC1=O)c(=O)n(C)c(=O)n2C | -0.93 | -0.55
Cc1ccc(S(=O)(=O)Nc2ccccc2SCc2cc(=O)n3oc(C)cc3n2)cc1 | -6.54 | .
CSc1ccc(CCNc2nc(-c3ccccc3F)no2)cc1 | 1.63 | .
CC(C)OCCCNS(=O)(=O)c1ccc2c(c1)CC(C)N2C(=O)C1CCC1 (configuration not stated) | -0.6 | .
COc1ccc(CCN[C@H]2CS(=O)(=O)C[C@@H]2S(=O)(=O)c2ccc(F)cc2)cc1 | 2.49 | -1.05
O=S1(=O)C=C2C(C1)SC(=S)N2C1CCS(=O)(=O)C1 (configuration not stated) | 0.47 | 1.43

An excerpt from above in order of molecular weight, smallest number first:
SMILES | HIV TAR-Tat | CDC25B-CDK2 inh
C=CCSc1nc2ccccc2c(=O)n1CC(=C)C | -0.64 | 0.28
CC(C)OCCCNS(=O)(=O)c1ccc2c(c1)CC(C)N2C(=O)C1CCC1 (configuration not stated) | -0.6 | .
Cc1nc2c(c(C)c1CCC(=O)NCCCN1CCCC1=O)c(=O)n(C)c(=O)n2C | -0.93 | -0.55

(further entries)
SMILES | HIV TAR-Tat | CDC25B-CDK2 inh
Fc1ccc(OCc2nc(-c3cccs3)no2)cc1 | -1.5 | -1.44
CCOc1c(N2CCN(c3cc(Cl)ccc3C)CC2)c(=O)c1=O | 0.99 | .
O=C(CCc1nnc2ccc(NCc3cccnc3)nn12)NCc1ccco1 | 5.96 | .
COC(=O)c1sc2ccccc2c1S(=O)(=O)Nc1ccc(Cl)cc1 | -2.31 | .
O=C(O)Cn1nnc(-c2cccs2)n1 | 2.48 | -1.58
CCCS(=O)(=O)Nc1cc(-c2cn3ccc(C)cc3n2)ccc1C | 0.69 | 2.04
NC(=O)C1CCN(C(=O)CCC(=O)N2CCOc3ccc(Cl)cc32)CC1 | 0.26 | 0.96
CC1CCc2c(sc3nnn(CC(=O)c4ccccc4)c(=O)c23)C1 (configuration not stated) | 1.75 | -1.08

Continued.
SMILES | HIV TAR-Tat | CDC25B-CDK2 inh
O=C(Nc1ccc(S(=O)(=O)Nc2cnc3ccccc3n2)cc1)c1ccncc1 | . | 0.32
CCCC1C(C#N)=C(N)Oc2n[nH]c(CC(=O)OCC)c21 (configuration not stated) | -1.83 | -1.24
CC(C)(C)C1=CC=Nn2cnnc2S1 | 0.21 | -0.2
CC(=O)N(c1ccccc1)C1C=CS(=O)(=O)C1 (configuration not stated) | 0.25 | -2.36
Cc1cc(OCc2noc(-c3ccc(F)cc3)n2)ccc1Cl | 0.25 | 1.22
COc1ccc(-c2nc(SCc3cc(=O)n4oc(C)cc4n3)n[nH]2)cc1 | -0.12 | .
CCCCN(C)S(=O)(=O)c1cc(Br)cc2c1N(C(C)=O)CC2 | . | 0.29
O=c1oc2c(Cl)cc(Cl)cc2cc1-c1nnc(Nc2ccc(F)cc2)s1 | . | -3.24

The listing continues:
SMILES | HIV TAR-Tat | CDC25B-CDK2 inh
CCN1C(=O)/C(=C\c2ccc(OS(=O)(=O)c3ccccc3[N+](=O)[O-])c(OC)c2)SC1=S | . | -0.05
Cc1cccc(-c2nc3ccccc3c3nnc(SCC(=O)NC4CC4)n23)c1 | 0.75 | .
NC(=O)c1nc(-c2cccc(Cl)c2)nc2c1[nH]c(=O)n2-c1ccc(Cl)cc1 | 0.98 | .
Cc1cc(C)cc(C(=O)n2nc(C)c(S(=O)(=O)N3CCC(C)CC3)c2C)c1 | 0.58 | .
CC(C)NC(=O)CCCSc1nc(-c2ccco2)cc(C(F)(F)F)n1 | -0.53 | -0.92
Cc1nc2sccn2c(=O)c1S(=O)(=O)Nc1ccc(F)cc1 | 1.89 | -1.24
CCOc1cc2c(cc1OCC)C(c1cc(Br)ccc1OC)CC(=O)N2 (configuration not stated) | 1.45 | -0.24
O=C(CCCc1nc(-c2ccco2)no1)Nc1ccc(F)cc1 | 1.59 | -0.01

(more compounds)
SMILES | HIV TAR-Tat | CDC25B-CDK2 inh
Cc1ccc(C)c(CN2CCCN(Cc3ccc(Cl)cc3)S2(=O)=O)c1 | 1.04 | .
Cc1ccc2nc(-c3ccsc3)c(Nc3ccc4c(c3)OCO4)n2c1 | . | -2.97
COc1ccc(N(Cc2cc(CN3CCOCC3)cs2)S(=O)(=O)c2ccc(F)c(F)c2)cc1 | -1.95 | .
Cc1ccc(-c2cc(N)n3nc(-c4ccc(C)cc4)cc3n2)cc1 | 0.37 | -0.13
COc1ccc(-c2cc(C(F)(F)F)nc(N)n2)cc1OC | . | -0.96
O=C(NC(=S)Nc1nc(-c2ccc(Cl)cc2)cs1)C1CC1 | . | -1.38
Cc1ccc(-c2noc(CSc3nc4ccc(C)cc4[nH]3)n2)cc1 | -0.6 | -2.19
CCN1CCN(CC(=O)Nc2sc3c(c2C(N)=O)CCCC3)CC1 | 2.63 | -0.33

Next compounds follow:
SMILES | HIV TAR-Tat | CDC25B-CDK2 inh
O=C(O)C1=CCNCC1 | . | -0.37
Cc1nn(CC(=O)NC2CC2)c(=O)c2nn(-c3ccccc3)c(C)c12 | 2.51 | .
CCCNc1ncnc2onc(-c3cc(F)cc(F)c3)c12 | 0.37 | .
CC1CC2(C)Oc3ccccc3C3OCC1(COC(=O)NC1CCCCC1)C(C)C32 (configuration not stated) | -1.63 | -0.27
O=C(Cn1c(O)c(N=NC(=O)C(=O)Nc2cccc([N+](=O)[O-])c2)c2ccccc21)Nc1ccccc1 | . | -4.24
CC(C)c1cc(C(=O)N2CCc3ccccc32)nn1C1CCS(=O)(=O)C1 (configuration not stated) | -0.04 | -1.53
Cc1ccc(Cl)c(OCC(O)Cn2cnc3cc(C)c(C)cc32)c1 (configuration not stated) | 0.11 | -0.19
O=C(c1ccccc1)c1cccnc1C(=O)O | . | 1.05

The listing continues.
SMILES | HIV TAR-Tat | CDC25B-CDK2 inh
COCCCNc1oc(/C=C/c2cccc(OC)c2)nc1C#N | 1.29 | -1.42
COc1ccc(S(=O)(=O)NCC(c2ccc(N(C)C)cc2)N(C)C)cc1OC (configuration not stated) | -0.61 | .
CCc1nnc2sc(/C=C/c3ccccc3OC)nn12 | 0.97 | 0.59
COCCOC(=O)C1=C(C)NC2=C(C(=O)C(C(=O)OC)C(C)C2)C1c1cccc(Cl)c1 (configuration not stated) | -0.52 | -0.36
NC(=O)c1cc(S(=O)(=O)N2CCN(c3ccccc3)CC2)cs1 | 1.97 | .
O=C(NCc1ccc2c(c1)OCO2)c1sccc1Br | . | -0.57
COC(=O)c1sc(=S)n(-c2c(C)cccc2C)c1N | 1.79 | .
Fc1cc(F)cc(-c2noc3ncnc(NCCN4CCCC4)c23)c1 | 0.78 | .

Next records
SMILES | HIV TAR-Tat | CDC25B-CDK2 inh
CCCCN(C)c1cc(C(=O)O)c2cc(N)ccc2n1 | -0.81 | .
N#Cc1c(-c2ccco2)c2c([nH]c1=O)-c1ccccc1OC2 | . | -1.53
CCN1CCN(C(c2ccc(SC)cc2)c2c(O)cc(C)n(CCOC)c2=O)CC1 (configuration not stated) | 0.75 | .
N#CC1=C2SCN(c3ccc(F)cc3)CN2C(=O)CC1c1cccc(F)c1 (configuration not stated) | -3.91 | 6.44*
O=C1c2[nH]nc(-c3ccccc3O)c2C(c2cccc(OCc3ccccc3)c2)N1CCCO (configuration not stated) | 1.5 | -1.53
CCCCNC(=O)C1CCN(S(=O)(=O)c2cnc[nH]2)CC1 | . | -0.95
COc1cc(CNCCSc2nnnn2C)ccc1OCc1ccc(F)cc1 | -0.51 | -0.54
N=c1nc(N)nc2n1NC(c1ccc(Cl)cc1)=CS2 | . | -2.84

(cont.)
SMILES | HIV TAR-Tat | CDC25B-CDK2 inh
Cc1nn(-c2ccccc2)c(C)c1C(=O)O/N=C(\N)c1ccccc1 | . | -0.78
Cc1ccc(-c2cc(C(=O)N(Cc3ccco3)Cc3sccc3C)no2)cc1 | 2.24 | -0.06
CCS(=O)(=O)c1nc(S(=O)(=O)c2ccc(Cl)cc2)c(NCCCN(C)C)s1 | 1.47 | -0.99
Cc1oc2cc(O)ccc2c(=O)c1Oc1ccc(F)cc1 | . | -1.23
O=C(c1ccc(CS(=O)c2ccc(Br)cc2)o1)N1CCN(c2ccccc2F)CC1 (configuration not stated) | 0.76 | 0.79
CCCSc1nc2c(c(=O)[nH]1)C(c1ccc(O)c(O)c1)CC(=O)N2 (configuration not stated) | 8.46* | 7.82*
O=S(=O)(c1cccs1)N1CCN(C/C=C/c2ccccc2)CC1 | . | -0.42
O=C(NCc1cccnc1)C(=O)NCC(c1ccco1)S(=O)(=O)c1cccs1 (configuration not stated) | 1.32 | .

Continued:
SMILES | HIV TAR-Tat | CDC25B-CDK2 inh
CCCN1C(C(=O)c2ccccc2)=C(OC(=O)c2ccc(Cl)cc2)c2ccccc2S1(=O)=O | 0.55 | -0.4
Cn1cnnc1SCC(=O)Nc1nc2ccccc2s1 | 0.44 | 0.13
COCCNC(=O)c1c(NC(=O)c2cc(-c3ccc4c(c3)OCCO4)on2)sc2c1CCCC2 | 0.77 | -0.38
CCCCCCSc1nnc2c(n1)OC=Nc1ccccc1-2 | 0.7 | 1.73
Cc1ccc(CSc2nc(-c3ccccc3)c(C#N)c(=O)[nH]2)cc1 | 1.59 | -0.77
CCOC(=O)c1c(NC(=O)C2=CC(c3ccco3)=NS(=O)(=O)N2C)sc(C)c1C | -0.64 | -1.31
Cc1ccc2cc3c(nc2c1)N(C(=O)c1cccc(Br)c1)CC3 | -0.3 | -4.22
Cc1c(NC(=O)Nc2ccccc2Cl)sc2nc3n(c(=O)c12)CCC(C)CC3 (configuration not stated) | 0.25 | -2.5

The list goes on:
SMILES | HIV TAR-Tat | CDC25B-CDK2 inh
CC(C)(C)NC(=O)CSc1nc(-c2ccc3c(c2)OCO3)nc2cc(=O)[nH]n12 | 0.98 | .
COc1ccc(CCNc2ncnc3c2oc2nc4c(cc23)COC(C)(C)C4)cc1OC | -0.64 | .
CCN1CCN(CCCNC(=O)c2noc3c2CCc2sccc2-3)CC1 | 0.07 | .
Cc1nc(SC(C(=O)c2ccccc2)c2ccccc2)n[nH]1 (configuration not stated) | 2.37 | -0.72
CCOC(=O)c1c(NC(=O)C2CC2)sc2c1CC(C)(C)OC2 | -1.29 | -0.9
Cc1ccc(-c2cn3c4ccccc4nc3n2CCCN2CCCCC2)cc1 | -0.74 | -1.46
Cc1nc(C)c(-c2ccc(SCC(=O)NC3CCCC3)nn2)s1 | 0.5 | .
Cc1cccc(C)c1-n1nnnc1C(C)(C)N1CCOCC1 | 1.28 | .
